UCH37 inh – inhibitors of human UCH37 deubiquitinase, primary screen, biochemical, Ub-AMC cleavage, fluorescence. purified proteasome/UCH37. inhibition, % (no concentration beside the values). 330,000 compounds, 0.33% hits. AID 588478, 2011;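 active = mean of two replicates above 20%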;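 also: 0% = compound-free wells with enzyme and 100% = wells lacking proteasome; stock transfer was 100 nL into about 20 µL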
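Assay system: Proteasome-bound UCH37. Buffer or medium: pH 7.4 Tris-HCl (50 mM) with ovalbumin, ATP-MgCl2, DTT. Incubation: 30 min preincubation with enzyme, 25 min cleavage at room temperature. Measured by: fluorescence, ex 355 nm, em 460 nm. Read-out basis: percent inhibition. Control set: wells without proteasome as full block, compound-free enzyme plus substrate as uninhibited.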
ALR inh – inhibitors of human ALR sulfhydryl oxidase, primary screen, biochemical, H2O2 detection, HRP-luminol luminescence, single point; purified ALR, DTT oxidation; inhibition, % (test concentration not listed); 290,000 compounds, 3.8% hits;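 active = mean and each replicate at 75% or more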;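 also: stock transfer was 7.5 nL into about 7.5 µL; 0% = neutral wells and 100% = wells with inactivated enzyme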
FGF22 binding – binders of human FGF22 protein, primary screen, FGF22 synaptogenesis inhibitor project, biophysical, thermal shift, single point; 340,000 compounds, 1.5% hits; recombinant FGF22 thermal shift, SYPRO orange fluorescence; percent of sucrose octasulfate shift, DMSO zero; Fibroblast growth factor 22 (Homo sapiens), Q9HCT0; calls only at 9.99 µM; AID 651658, 2012;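 active = melting point raised past a set limit in the mean and every replicate; three in four hits are not shown here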
Target sequence (Q9HCT0 whole entry, looked up): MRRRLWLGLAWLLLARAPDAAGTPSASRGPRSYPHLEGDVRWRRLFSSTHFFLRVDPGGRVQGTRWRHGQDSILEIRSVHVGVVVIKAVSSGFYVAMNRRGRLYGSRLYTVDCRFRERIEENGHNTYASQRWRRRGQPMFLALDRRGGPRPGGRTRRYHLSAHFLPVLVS
Ecoli rRNA inh – reduced GFP signal of wild-type E. coli, primary screen, bacterial rRNA inhibitor project, GFP/RFP fluorescence, OD600, single point. AID 720706, 2013. GFP signal change (wild-type ribosome), % (test concentration not listed). 350,000 compounds, 1.6% hits. E. coli WT GFP vs humanized-ribosome RFP mutants, 24 h; stronger effect = lower value; DMSO median 0, no signal -100;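 active = significant combined selectivity score with lowered wild-type GFP, culture density cut under 30%, mutant RFP and density less affected; inactive = any of these conditions unmet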; also: one replicate is shown; some compounds called inactive have numbers as strong as hits
Ecoli growth – E. coli growth inhibition, primary screen, OD600. Escherichia coli growth, 23 h; stronger effect = lower value. OD600 absorbance (test concentration not listed). 330,000 compounds, 0.21% hits. AID 1053175, 2014;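 active = OD600 absorbance below the run mean of sample wells minus 3.6 SD, in any replicate, cut at about 0.56 in these data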;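 also: stock transfer was 300 nL into about 60 µL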
B2AR ag – beta2AR agonists driving receptor internalization, primary screen, cell-based, FAP fluorogen, flow cytometry. 340,000 compounds, 0.43% hits. Am2.2-beta2AR cells; reference of the scale not given here. response, % (concentration not given with the values). Beta-2 adrenergic receptor (Homo sapiens), P07550. AID 504454, 2011;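 active = response above a set limit, near 3 SD of response in nonfluorescent compounds, cut at about 42% in these data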;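 also: stock transfer was 100 nL into about 11 µL; a reference agonist was the positive control; negative values mostly stem from fluorescent compounds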
Target sequence (P07550 whole entry, looked up): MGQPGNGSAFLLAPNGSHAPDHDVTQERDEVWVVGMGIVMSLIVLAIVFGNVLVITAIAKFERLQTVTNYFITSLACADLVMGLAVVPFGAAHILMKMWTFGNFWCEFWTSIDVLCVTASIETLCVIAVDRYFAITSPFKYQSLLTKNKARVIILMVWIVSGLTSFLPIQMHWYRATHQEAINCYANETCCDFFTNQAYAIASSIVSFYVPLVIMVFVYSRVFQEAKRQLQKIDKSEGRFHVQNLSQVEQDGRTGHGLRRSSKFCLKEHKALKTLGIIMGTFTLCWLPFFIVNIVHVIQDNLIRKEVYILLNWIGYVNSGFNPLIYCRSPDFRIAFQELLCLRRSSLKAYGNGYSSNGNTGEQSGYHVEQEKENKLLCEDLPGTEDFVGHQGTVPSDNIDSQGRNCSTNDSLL
HNF4A DNA FP – change in binding of human HNF4A to DNA, primary screen, biochemical, fluorescence polarization, FITC-DNA; 1 h; 360,000 compounds, 0.3% hits; AID 1224865, 2016; activity change, % at 10 µM; Hepatocyte nuclear factor 4-alpha (Homo sapiens), P41235; in the data active = activity change above about 30%, passing the limit was not always enough;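 also: controls were the assay level and a saturating level of protein; the project sought stronger binding though the title names inhibitors; some compounds called inactive have numbers as strong as hits; positive values seem to mean higher polarization but the record does not say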
Target sequence (P41235 whole entry, looked up): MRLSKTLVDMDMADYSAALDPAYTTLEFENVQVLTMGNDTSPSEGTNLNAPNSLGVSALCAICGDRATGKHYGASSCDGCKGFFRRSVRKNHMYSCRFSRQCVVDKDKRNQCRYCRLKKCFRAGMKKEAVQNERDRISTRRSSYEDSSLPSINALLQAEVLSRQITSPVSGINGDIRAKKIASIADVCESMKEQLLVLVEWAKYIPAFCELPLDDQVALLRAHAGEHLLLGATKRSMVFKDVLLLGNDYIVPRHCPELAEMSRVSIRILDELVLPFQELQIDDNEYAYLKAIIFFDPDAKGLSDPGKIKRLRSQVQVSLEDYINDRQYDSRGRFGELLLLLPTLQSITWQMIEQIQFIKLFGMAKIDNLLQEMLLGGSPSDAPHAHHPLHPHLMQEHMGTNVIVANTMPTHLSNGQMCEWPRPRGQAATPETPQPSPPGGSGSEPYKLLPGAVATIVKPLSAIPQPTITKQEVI
Ecoli rRNA inh OD600 – also measured in Ecoli rRNA inh; calls as there; OD600 change, %; measured here: OD600 growth;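 optical density of the mix in the first replicate; 0 = DMSO median and -100 = no signal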
Ecoli rRNA inh RFP – also measured in Ecoli rRNA inh; calls as there; RFP signal change, %; measured here: RFP humanized mutant strains;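 first replicate; 0 = DMSO median and -100 = no signal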
The depositor's hits bear a star; i = inactive; . = not tested or not shown; & = joins results of further samples.

SMILES	UCH37 inh	ALR inh	FGF22 binding	Ecoli rRNA inh	Ecoli rRNA inh OD600	Ecoli rRNA inh RFP	Ecoli growth	B2AR ag	HNF4A DNA FP
Cc1ccc(-n2c(SCC(N)=O)nnc2-c2ccccn2)cc1C	1.9	9	.	.	.	.	0.67	-6	-3.2
CCc1nc(SCC(N)=O)c2c(=O)n(C)c(=O)n(C)c2n1	1.2	-14	i	4	16	-9.0	0.69	0	-5.7
O=C1CCCN1CCCNS(=O)(=O)c1ccc(F)c(F)c1	1.5	-4	i	9	8	-0.8	0.67	3	0.4
COc1ccc(NS(=O)(=O)c2cccc(C(=O)N/N=C/c3ccccc3OC)c2)cc1	.	.	i	2	4	0.7	.	12	3.3
O=C(Cn1nnc2ccccc21)NC1CCCCC1	4.2	-5	.	.	.	.	0.73	1	-1.6
O=C1COc2ccc(C(=O)NC3CC3)cc2N1	-1.4	-3	i	-2	-2	-0.2	0.69	-2	-0.3
COc1ccc(C(CNC(=O)COc2ccc(C)c(C)c2)N2CCCCC2)cc1 (configuration not stated)	-0.9	-20	i	1	-1	-0.4	0.7	-9	-2.3
CCOC(=O)N1CCN(Cc2nc3ccc([N+](=O)[O-])cc3c(=O)n2-c2ccccc2F)CC1	1.8	-3	i	1	8	0.2	0.68	-14	1.3
Cc1cc(NC(=O)COC(=O)CCn2c(C)csc2=O)c([N+](=O)[O-])cc1C	.	.	i	-16	-8	1.4	.	.	3.4
Cc1ccccc1-n1nc2c(c1NC(=O)c1c(-c3ccccc3Cl)noc1C)CSC2	1.7	-5	.	.	.	.	0.71	9	0.8
Cc1sc2nc3c(SC(C)C(=O)O)cc(C(=O)c4ccccc4O)cn3c(=O)c2c1C (configuration not stated)	15	8	.	.	.	.	0.66	5	4.6
CC(C)Cn1c(/C=N/Nc2nc3ccccc3[nH]2)nc2ccccc21	.	.	i	1	12	-1.9	.	0	1.0
CC(C(=O)N(C)c1ccccc1)N1CCN(C(=O)c2ccccc2)CC1 (configuration not stated)	3.7	-8	i	7	14	-5.7	0.7	-1	2.5
CC(=O)Nc1ccc(/C(N=Nc2ccccc2)=N/N=C(N)N)cc1	.	.	i	-20*	-10*	2.9*	.	-14	-0.9
O=C1/C(=C/c2ccc(F)cc2)SC(=S)N1CC(=O)N1CCCCC1c1cccnc1 (configuration not stated)	6.5	-3	i	-30	-37	-2.5	0.71	4	6.5
CCOC(=O)Nc1ccc2c(c1)nc1n2CCN(CCOC)C1	-195	-32	i	10	16	3.9	0.68	0	4.0
CCOC(=O)C1=C[C@@H](C(C)(C)C)N(S(=O)(=O)c2ccccc2C)[C@H]1c1ccc(Cl)cc1	.	.	i	10	17	-0.6	.	.	-5.8
Cc1ccc(S(=O)(=O)NC(CC(C)C)C(=O)NCCCn2nc(C)cc2C)cc1 (configuration not stated)	1.8	-4	i	0	-2	-2.2	0.68	2	2.4
CCOC(=O)c1cc(-c2sc(NC(=O)c3ccccc3)nc2C)n(Cc2ccccc2)n1	.	.	i	2	-2	0.6	.	.	5.0
CCOc1ccc(S(=O)(=O)N(C)c2ccc(OCC(=O)NCc3cccnc3)cc2)cc1	6.5	-1	i	-20*	-15*	4.7*	0.67	-3	1.1
Cc1cc2oc(C(=O)Nc3nonc3C)c(C)c2cc1Cl	3.6	-1	i	7	14	0.8	0.7	6	0.1
CC(NC(=O)c1ccc(Br)cc1Br)c1ccccc1 (configuration not stated)	.	-3	i	-9	-6	-4.0	.	-6	2.0
CCN(CC)S(=O)(=O)c1ccc2nc(COC(=O)c3n[nH]c4ccccc34)[nH]c2c1	-2.5	.	.	.	.	.	0.73	5	-1.8
O=S(=O)(N1CCCCC1)N1CCCN(S(=O)(=O)N2CCCCC2)CC1	0.4	-25	.	.	.	.	0.71	33	-4.8
CC(=CC(=O)c1ccccc1)c1ccccc1	2.8	.	i	1	9	-1.8	0.65	3	-0.2
O=C(COc1ccc(-c2ccccc2)cc1)N1CCN(C(=O)c2cccnc2)CC1	2.3	-5	.	.	.	.	0.69	4	-1.0
Cc1ccc2cc(C#N)c(SCC(=O)N3CCCC3)nc2c1	5.6	-6	i	4	-3	-6.9	0.69	-16	-1.3
O=C(CCc1c[nH]c2ccccc12)N1CCN(S(=O)(=O)c2ccc(F)cc2)CC1	0.8	.	i	0	-2	5.5	0.64	-1	3.5
COc1ccc(CSc2nnnn2-c2ccc(C(=O)O)cc2)cc1	1.6	3	i	-7	3	-1.0	0.72	-1	-0.1
C=CCNC(=O)Nc1cc(Cl)ccc1OC	2.1	1	i	-4	3	-0.7	0.71	-2	-2.5
O=C(NCCC1CCCCN1S(=O)(=O)c1ccc(Cl)cc1)C(=O)NCCN1CCOCC1 (configuration not stated)	.	-39	.	4	2	3.9	.	0	-3.7
O=C(NC1CC1)C1CCCN1S(=O)(=O)c1ccc2ccccc2c1 (configuration not stated)	3.9	-1	.	.	.	.	0.74	-4	0.5
Cc1ccc2c(c1)N(CC(=O)N1CCCCCC1)C(=O)C(C)O2 (configuration not stated)	3.6	-7	i	5	2	2.3	0.71	16	-1.7
C/C(=N\NC(=O)CN1CCN(S(=O)(=O)c2ccc(C)cc2)CC1)c1cccnc1	.	-8	.	.	.	.	.	-11	2.3
Cc1ccccc1Oc1ccc2c(c1)[C@@H]1C[C@H](N(C)C(=O)c3cccnc3)[C@H]([C@H](C)O)C(=O)N1CC2	.	.	i	-7	-11	-0.6	.	.	-2.5
CCOC(CNC(=O)C1CCN(S(=O)(=O)c2ccc3nc4c(c(C(=O)O)c3c2)CCCCC4)CC1)OCC	0.8	-3	i	17	15	3.4	0.71	2	-0.7
C[C@H]1CN([C@@H](C)CO)C(=O)CCCn2cc(nn2)CO[C@@H]1CN(C)C(=O)Nc1cccc(C(F)(F)F)c1	.	.	i	3&-6	7&-5	-0.8&-2.4	.	.	-2.9
Cc1ccc(S(=O)(=O)N2CCC(C(=O)OCC(=O)NCc3cccc(Cl)c3)CC2)cc1C	3.8	3	i	-2	-27	-0.5	0.73	-2	-2.3
Cc1ccc(-c2cc(-c3cccc(F)c3)n[nH]2)c(O)c1	-3.5	7	.	.	.	.	0.66	6	0.9
Cc1cc2oc(C(=O)N3CCN(CCc4ccccn4)CC3)c(C)c2cc1C	1.2	-14	i	-28*	-21*	-4.8*	0.69	0	2.0

Pulled by structure from the list above (4):
SMILES	UCH37 inh	ALR inh	FGF22 binding	Ecoli rRNA inh	Ecoli rRNA inh OD600	Ecoli rRNA inh RFP	Ecoli growth	B2AR ag	HNF4A DNA FP
Cc1cc2oc(C(=O)N3CCN(CCc4ccccn4)CC3)c(C)c2cc1C	1.2	-14	i	-28*	-21*	-4.8*	0.69	0	2.0
Cc1ccc(S(=O)(=O)N2CCC(C(=O)OCC(=O)NCc3cccc(Cl)c3)CC2)cc1C	3.8	3	i	-2	-27	-0.5	0.73	-2	-2.3
O=C(NCCC1CCCCN1S(=O)(=O)c1ccc(Cl)cc1)C(=O)NCCN1CCOCC1 (configuration not stated)	.	-39	.	4	2	3.9	.	0	-3.7
O=C(NC1CC1)C1CCCN1S(=O)(=O)c1ccc2ccccc2c1 (configuration not stated)	3.9	-1	.	.	.	.	0.74	-4	0.5

(next part)
SMILES	UCH37 inh	ALR inh	FGF22 binding	Ecoli rRNA inh	Ecoli rRNA inh OD600	Ecoli rRNA inh RFP	Ecoli growth	B2AR ag	HNF4A DNA FP
Cc1cc(NC(=O)COC(=O)C2CC2)ccc1Br	0.7	.	i	-2	1	0.2	0.65	-5	4.3
O=C(Nc1nnc(C2=COCCO2)o1)c1ccc(F)cc1	7.1	3	i	-2	0	1.1	0.67	-1	-2.8
Cc1ccc(C(=O)CC2(O)C(=O)Nc3ccccc32)s1 (configuration not stated)	1.2	-6	.	.	.	.	0.7	-3	3.0
CCC(Sc1nc2cc3c(cc2c(=O)n1Cc1ccco1)OCO3)C(=O)Nc1ccccc1OC (configuration not stated)	1.3	1	.	.	.	.	0.72	-4	2.0
Cc1cccc(C)c1NC(=O)NS(=O)(=O)c1ccccc1	.	.	i	10	21	9.2	.	.	0.0
CCCCn1nnnc1C1(C)CCC(=O)N1c1ccc(N2CCOCC2)cc1 (configuration not stated)	.	.	i	12	15	1.4	.	.	-0.8
CCOC(=O)N1CCN(S(=O)(=O)c2cc(Br)cc3c2N(C(=O)CC)CC3)CC1	-1.5	-16	.	.	.	.	0.74	-6	-0.4
CCOC(=O)C1=C(CSc2nc(-c3ccncc3)ccc2C#N)OC(N)=C(C#N)C1c1cccnc1 (configuration not stated)	-1.8	17	.	.	.	.	0.72	-13	1.7
Cc1cccc2cc3c(N)c(C(=O)N4CCCc5ccccc54)sc3nc12	1.7	.	.	.	.	.	0.73	-109	48*
Cc1[nH]c(C)c(S(=O)(=O)N2CCN(c3cccc(C(F)(F)F)c3)CC2)c1C(=O)N1CCCC1	4.4	-2	i	-3	-10	0.0	0.7	-3	1.4
CCCOc1ccc2c(C)c(CC(=O)OC)c(=O)oc2c1	-185	-1	.	.	.	.	0.7	-6	1.8
CCN(CC)P(=O)(Nc1ccc(Br)cc1)c1c(C)nn(CCC#N)c1NC(=O)c1ccc(Cl)cc1 (configuration not stated)	4.0	.	i	-3	3	0.1	0.71	3	-3.7
Cc1ccc(/C=N/NC(=O)c2ccc3nc[nH]c3c2)o1	.	-4	i	7	-8	-3.8	.	-4	4.0

7 of the compounds above, with two lines to a compound.
The line under a structure holds: UCH37 inh, ALR inh, FGF22 binding, Ecoli rRNA inh, Ecoli rRNA inh OD600, Ecoli rRNA inh RFP, Ecoli growth, B2AR ag, HNF4A DNA FP
C/C(=N\NC(=O)CN1CCN(S(=O)(=O)c2ccc(C)cc2)CC1)c1cccnc1
  ., -8, ., ., ., ., ., -11, 2.3
Cc1ccccc1Oc1ccc2c(c1)[C@@H]1C[C@H](N(C)C(=O)c3cccnc3)[C@H]([C@H](C)O)C(=O)N1CC2
  ., ., i, -7, -11, -0.6, ., ., -2.5
CCOC(CNC(=O)C1CCN(S(=O)(=O)c2ccc3nc4c(c(C(=O)O)c3c2)CCCCC4)CC1)OCC
  0.8, -3, i, 17, 15, 3.4, 0.71, 2, -0.7
C[C@H]1CN([C@@H](C)CO)C(=O)CCCn2cc(nn2)CO[C@@H]1CN(C)C(=O)Nc1cccc(C(F)(F)F)c1
  ., ., i, 3&-6, 7&-5, -0.8&-2.4, ., ., -2.9
Cc1ccc(S(=O)(=O)N2CCC(C(=O)OCC(=O)NCc3cccc(Cl)c3)CC2)cc1C
  3.8, 3, i, -2, -27, -0.5, 0.73, -2, -2.3
Cc1ccc(-c2cc(-c3cccc(F)c3)n[nH]2)c(O)c1
  -3.5, 7, ., ., ., ., 0.66, 6, 0.9
Cc1cc2oc(C(=O)N3CCN(CCc4ccccn4)CC3)c(C)c2cc1C
  1.2, -14, i, -28*, -21*, -4.8*, 0.69, 0, 2.0

Not all compounds are listed. The share of hits here may be higher or lower than overall.
